TRPML1 agonist = human mucolipin-1 channel agonism. TRPML1-expressing cells, Ca2+ dye fluorescence, FDSS; host cell line not named in the record; reference of the full effect not given here. activation, % (concentration not given with the values). hit rate 0.12% among 410,000. AID 624414; in the data active = activation above about 50%; inconclusive = about 30% to 50%; inactive = below about 30%; also: 0% is about no effect; the text of the record puts the active cut at 80%
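TRPML1-DL cells, Tet-induced overnight (~16 h, 37 degrees C), loaded 45-90 min at room temperature with Ca8 no-wash calcium dye plus quencher. FDSS fluorescence: 10 s baseline, compound pin-transfer, 110 s agonist read, then EC80 54-4 (4uM final) and 110 s antagonist read.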
ClpP mod = qHTS Assay for Activators of ClpP; purified B. subtilis ClpP, FRET peptide cleavage, 20 min; Potency, µM (series often up to 57.5 µM), without a hit: at the highest dose activity change, negative = active; hit rate 1.9% among 340,000; AID 651965, 2013; ATP-dependent Clp protease proteolytic subunit (Bacillus subtilis (strain 168)), P80244; active = well fitted falling curve with a large enough effect; inconclusive = small, poorly fitted or top-dose-only effect; inactive = no such curve, though single readings can be large or run the other way; also: potency is read from the fitted curve at half-maximal effect; the source files actives as falling curves though it sought activators and does not explain the sign; nearly all actives have a fitted effect of over 65% in size; many hits overshoot -100%
Target sequence (P80244 whole entry, looked up): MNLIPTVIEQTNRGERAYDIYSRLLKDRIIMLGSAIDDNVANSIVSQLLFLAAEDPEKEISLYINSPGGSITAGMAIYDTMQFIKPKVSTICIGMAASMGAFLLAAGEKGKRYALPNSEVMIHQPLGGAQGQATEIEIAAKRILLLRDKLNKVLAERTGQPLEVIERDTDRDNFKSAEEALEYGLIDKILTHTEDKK
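FRET quenching reversal measured ClpP activation: 10 microg/mL B. subtilis ClpP at pH 8 with the FRET-FV decapeptide, read at 430 nm after 320 nm excitation. The 20-min minus 0-min signal was scaled between DMSO/no-enzyme wells and ADEP (5.8 microM final).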
Menin MLL FP FL = displaces fluorescein MLL peptide from human menin | Fluorescence polarization, fluorescein-MLL peptide displacement from menin | 290,000 tested, under 10 active | FP activity change, % at 61.4 µM; inconclusive = falling polarisation curve, or a change in total fluorescence; inactive = total fluorescence flat and polarisation flat or rising; no compound was filed as active; the % refers to the polarisation; negative = inhibition;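 also: % of control where 0% means no effect; inhibitors lower the polarisation; unlabelled MLL peptide was the positive control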
TRPML1 inh = blocks the human TRPML1 channel; AID 624415; Q9GZU1; activity change, negative = inhibition, % (concentration not given with the values); TRPML1-inducible cells, Ca2+ dye fluorescence, FDSS; hits give low values; inhibition of EC80 agonist-evoked calcium signal; hit rate 0.02% among 390,000; in the data active means activity change below about -50%; inconclusive means about -30% to -50%; inactive means above about -30%;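 also: stimulus is agonist 54-4 at its EC80 concentration; % is scaled to controls: 0 for no effect and ±100 for the full control effect; compound concentration not given in the record; the text of the record puts the active cut at -80%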
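Calcium fluorescence in TRPML1-DL cells induced overnight with Tet: a 110 s read after compound pin addition, then a 110 s antagonist read after challenge with 54-4 at 4 uM final (EC80).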
PINK1 expr mod = modulators of PINK1 expression; hit rate 0.2% among 410,000; PINK1 immunofluorescence, high-content cytometry, 24 h; AID 624263; Potency, µM (titrated, usually from 76.6 µM), inactives show at the top dose activation (PINK1 increase), usual class: activators; active = well fitted activation curve with a large enough effect; inconclusive = small, poorly fitted or top-dose-only effect; inactive = flat fitted curve, though single readings scatter; cell line not stated here;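 also: potency is read from the fitted curve at half-maximal effect; % of control where 0% means no effect; nearly all actives have a fitted effect of over 65% in size; a mitochondrial uncoupler was the plate control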
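Stable cell line treated 24 h with compounds at 5 concentrations (CCCP controls), then fixed and immunostained for PINK1 plus nuclear and cell stains; PINK1 immunofluorescence quantified by laser-scanning microplate cytometry.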
TRPV1 potentiator = enhances activation of the human vanilloid receptor TRPV1. Q8NER1. TRPV1-expressing cells, Fluo-8 calcium influx, capsaicin EC20 potentiation; host cell line not named in the record; control for the full effect not named in the record. AID 540277. hit rate 0.02% among 320,000. potentiation, % at 8.33 µM; active means potentiation above 80%; inconclusive means 30% to 80%; inactive means below 30%; also: 0% is about no effect
Target sequence (Q8NER1 whole entry, looked up): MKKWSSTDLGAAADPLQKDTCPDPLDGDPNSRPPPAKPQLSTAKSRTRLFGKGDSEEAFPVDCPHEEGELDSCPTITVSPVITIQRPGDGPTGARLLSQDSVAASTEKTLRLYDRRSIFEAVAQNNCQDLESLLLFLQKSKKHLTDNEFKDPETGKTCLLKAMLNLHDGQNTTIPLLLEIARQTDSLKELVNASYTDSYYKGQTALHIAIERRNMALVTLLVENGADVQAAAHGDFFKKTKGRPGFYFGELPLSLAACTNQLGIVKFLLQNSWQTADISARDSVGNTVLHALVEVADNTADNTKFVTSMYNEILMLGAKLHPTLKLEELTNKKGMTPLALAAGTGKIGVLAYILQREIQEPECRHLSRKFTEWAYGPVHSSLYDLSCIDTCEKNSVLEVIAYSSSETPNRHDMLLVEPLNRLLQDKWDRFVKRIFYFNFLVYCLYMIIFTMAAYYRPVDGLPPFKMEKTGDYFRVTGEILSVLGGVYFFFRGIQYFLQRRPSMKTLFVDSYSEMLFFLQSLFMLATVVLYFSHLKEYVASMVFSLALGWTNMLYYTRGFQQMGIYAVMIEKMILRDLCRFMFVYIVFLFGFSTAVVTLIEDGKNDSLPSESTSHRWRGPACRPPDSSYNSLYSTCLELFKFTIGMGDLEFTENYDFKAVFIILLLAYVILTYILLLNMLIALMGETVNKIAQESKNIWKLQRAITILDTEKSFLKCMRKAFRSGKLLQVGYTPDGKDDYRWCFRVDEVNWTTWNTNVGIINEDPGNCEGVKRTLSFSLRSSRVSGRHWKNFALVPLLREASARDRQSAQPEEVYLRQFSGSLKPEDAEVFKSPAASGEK
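Cells expressing TRPV1 were dye-loaded with Fluo-8 and read kinetically: 10 s baseline, 3 min after compound (agonist portion), then 2 min after EC20 capsaicin (allosteric enhancer portion). Calcium-bound dye fluorescence at 480/520 nm.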
Sfp inh = Sfp phosphopantetheinyl transferase inhibition; Q9F4F7; Biochemical Sfp PPTase activity, qHTS; Potency, µM, for inactives: max response, negative = inhibition, most hits filed as inhibitors; hit rate 3.5% among 310,000; active = well fitted inhibition curve with a large enough effect; inconclusive = small, poorly fitted or top-dose-only effect, or another doubt; inactive = no such curve, though single readings can be large or run the other way;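 also: the enzyme is Sfp with the accession as filed and its product quenches rhodamine fluorescence; potency is read from the fitted curve at half-maximal effect; 0% = enzyme reaction without inhibitor and -100% = no enzyme wells; top concentration of the series not given in the record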
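Sfp 15 nM + cpd, 15 min RT; start w/ rhodamine-CoA 5 uM, BHQ-2-YbbR 12.5 uM (final); 50 mM Hepes pH 7.6, 10 mM MgCl2, 0.01% NP-40, 0.01% BSA; read 525/598 nm at 0 and 30 min.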
Active calls of the source: *; ? = inconclusive; . = not tested or not shown; [ ] = remark or other dose.

Compound | Menin MLL FP FL | TRPML1 inh | TRPV1 potentiator | Sfp inh | PINK1 expr mod | ClpP mod | TRPML1 agonist
COc1ccc2nc(C)cc(SCC(NC(C)=O)C(=O)OC(C)C)c2c1 (configuration not stated) | 0.7 | -6 | -10 | -25% | 7.6% | 3.8% | 2.7
COc1ccc(NC(=O)c2ccc3c(c2)CCN3S(C)(=O)=O)cc1 | . | -12 | . | . | 4.0% | -3.1% | 0.0
CCCN1CCN(C(=O)Cn2c(-c3cccs3)cc3ccccc32)CC1 | . | -4 | . | . | 2.5% | 32µM* | -0.2
COc1ccc(S(=O)(=O)N2CCC(c3ccncc3)CC2)cc1OC | . | -2 | . | . | 2.5% | 0.5% | -0.4
Cc1cccc(S(=O)(=O)c2c(C)cc(C)nc2Cl)c1 | -0.2 | -9 | 3 | 16% | 0.9% | . | 0.2
COc1ccc(CNc2nc(-c3ccc(N(C)C)cc3)nc3ccccc23)c(OC)c1 | -3.1 | . | . | 18µM* | 6.0% | . | .
CSCCC(NC(=O)c1ccco1)C(=O)NCC1CCCO1 (configuration not stated) | . | 19 | -4 | . | -1.5% | -1.5% | 0.1
CC(C)CNC(=S)NC(=O)c1ccc(F)cc1 | 3.9 | 19 | -8 | 1% | -0.6% | 0.5% | 0.8
CCc1cc2c(cc3c(=O)n(CC(=O)NC4CCC(C)CC4)nc(CC)n32)s1 (configuration not stated) | . | -7 | . | . | 0.5% | 1.1% | 0.3
CC(C)Cn1c(CCC(=O)O)ccc1-c1cccs1 | 3.8 | -20 | 0 | -14% | -2.3%[38.3 µM] | ? | 0.9
Oc1c(C=C2N=c3ccccc3=N2)sc(=S)n1C1CCCC1 | 25 | 15 | 0 | -13% | 4.6% | 1.2% | 0.1
CCNC(=S)NNC(=O)c1csc(C)c1 | -3.9 | -4 | 0 | 4% | -2.1% | -2.6% | -0.2
COc1ccccc1N1CCN(CC(O)COc2c(OC)cccc2OC)CC1 (configuration not stated) | -1.3 | -12 | 19 | -9% | 0.4% | 0.3% | -1.1
CCCc1nc2sc3ccccc3c(=O)c2c(=O)n1Cc1ccco1 | 18 | -7 | -4 | 28µM* | -3.1% | -1.8% | 3.1
Cc1ccc(CN2CCC(n3nccc3NC(=O)CCCc3ccccc3)CC2)o1 | . | 21 | 0 | ? | 1.6% | -3.1% | 0.0
CC(C)CN(C(=O)COC(=O)c1cccn1C)c1c(N)n(Cc2ccccc2)c(=O)[nH]c1=O | . | 0 | 0 | 15% | 1.1% | -1.4% | 0.7
COc1cc(NC(=S)NCCc2c[nH]c3ccccc23)c(OC)cc1Cl | 3.8 | -8 | 29 | 23% | -1.7% | -2.3% | 2.3
C/C(Cn1cnc([N+](=O)[O-])n1)=N/NC(=O)COc1c(Cl)cc(Cl)cc1Cl | 4.8 | -14 | 6 | 10% | 6.3% | -0.9% | -0.1
COC(=O)c1cn(N(C)c2ncc(C(F)(F)F)cc2Cl)c(=O)c2ccccc12 | 0.0 | -12 | 0 | -3% | 10% | -5.0% | 1.3
C=CCS(=O)(=O)N1CCCC(Cc2ccccc2C)(C(=O)OCC)C1 (configuration not stated) | -2.2 | 5 | -2 | 19% | -1.4% | 0.1% | -0.6
CCCN(CCC)c1ncnc2nc[nH]c12 | -3.2 | -6 | 20 | 11% | -0.2% | -0.7% | -1.0
CC(C)OCCCNC(=O)C(=O)Nc1ccc2nc3n(c(=O)c2c1)CCCCC3 | . | 17 | . | . | 6.5% | -0.5% | 4.2
CCOC(=O)C1(C(F)(F)F)N=C(C(F)(F)F)Nc2ccccc21 (configuration not stated) | -1.0 | 20 | -5 | 2% | . | -0.8% | -0.3
COc1ccc(OC)c(NC(=O)C(=S)NC2CCCCC2)c1 | 1.9 | 48 | 17 | ? | 10% | . | 1.3
CCOc1ccccc1N1CCN(Cc2cccc(OC)c2OC)CC1 | 2.3 | 2 | 7 | -1% | -1.7% | -2.0% | 0.2
Cc1cc(SCC(=O)Nc2cccc(S(N)(=O)=O)c2)c(C)cc1Br | -4.1 | -4 | -9 | 11% | 2.4% | -1.0% | 1.6
CCCC(C(=O)O)N1C(=O)/C(=C/c2cccn2C)SC1=S (configuration not stated) | ? | 56 | -1 | -25% | -0.9% | 1.4% | 1.1
Cc1nc(SCC(=O)N2CCCC2=O)nc(C)c1C | . | 46 | . | . | 0.0% | -0.4% | 0.4
CCOc1ccc(N(CC(=O)NCCSCc2ccco2)S(=O)(=O)c2ccc(F)cc2)cc1 | . | 2 | -4 | 4% | -1.1% | 1.2% | -0.5
CC1(C)Cc2c(sc(NC(=O)c3ccc(S(=O)(=O)N4CCCCCC4)cc3)c2C(N)=O)C(C)(C)N1 | . | -5 | -4 | 13% | 5.8% | -2.1% | 1.4
NC(=S)N/N=C/c1cn(CCC(=O)O)nc1-c1cccc(Br)c1 | 0.0 | -17 | -4 | ? | -0.9% | . | 0.7
COc1ccc(NC(=O)c2c[nH]n3c(=O)cc(C4CCN(C(=O)OC(C)(C)C)CC4)nc23)cc1Cl | ? | 20 | -6 | 16% | 3.4% | -3.6% | 3.3
O=C(NCCCN1CCN(CCCNC(=O)c2cc([N+](=O)[O-])ccc2Cl)CC1)c1cc([N+](=O)[O-])ccc1Cl | 3.4 | -14 | -10 | 6% | -1.8% | 0.0% | -0.4
COc1ccc(-n2c(C)cc(/C=N/Nc3nnc(C)n3N)c2C)cc1 | 1.5 | -25 | 2 | 32µM* | 1.5% | -4.8% | -0.3
CC(C(=O)Nc1ccccc1-c1ccccc1)N(C)Cc1nc2ccccc2c(=O)[nH]1 (configuration not stated) | 0.3 | -4 | 2 | ? | 2.3% | . | 2.6
CCN(CC(=O)Nc1c(F)cccc1F)C(=O)CSc1ccccc1 | . | -23 | -5 | . | -2.1% | . | 1.3
COc1cc(CNc2nc3c(C)cc(C)cc3s2)ccc1O | -0.6 | 46 | 5 | -6% | -1.6% | . | 0.3
O=c1cc(CCl)nc2scc(-c3ccccc3)n12 | 2.8 | 28 | 0 | -17% | 9.3% | 1.7% | -0.6
Cc1ccc(F)c(NC(=O)CCc2ccccc2)c1 | 3.5 | -3 | -11 | 14% | 0.4% | 0.1% | -1.0
CC(=O)Oc1ccccc1C(=O)Nc1ccccc1C(=O)N1CCCC1 | -3.9 | 0 | -21 | 1% | -1.2% | -9.0% | 1.3
CCOC(=O)N1CCN(Cc2cc(Cl)c3cccnc3c2O)CC1 | 1.5 | -4 | 10 | ? | 8.2% | . | 0.2
C#CCOCCOCCOCCNc1nc(N2CCN(C(=O)[C@H](CCCCN)n3cc([C@@H](N)C(C)CC)nn3)CC2)nc(N2CCN(C(=O)[C@H](CCCCN)n3cc([C@@H](N)CC(C)C)nn3)CC2)n1 (some centres not stated) | -6.8 | 27 | 21 | 15% | 1.3% | -1.0% | -0.5
COc1ccc(CCNC(=O)CSC2=Nc3ccccc3C3=NC(CCC(=O)NCc4ccccc4)C(=O)N23)cc1OC (configuration not stated) | . | 17 | . | . | 0.2% | -11% | -1.0
Cn1c(=O)c(=O)n(C)c2cc(S(=O)(=O)Nc3ccc(Cl)c(C(F)(F)F)c3)ccc21 | . | 8 | . | . | 1.1% | 1.3% | -0.3
CCCCCCOc1cccc(N)c1 | 0.2 | -10 | ? | 18% | 2.1% | 2.3% | 0.4
CCc1cc2c(cc3c(=O)n(CC(=O)NC4CCCCC4)nc(CC)n32)s1 | . | 5 | . | . | 2.0% | -5.9% | 0.5
CCN(CC)C(=N)/C(C#N)=N/Nc1ccc(C)cc1 | -3.1 | -5 | -21 | 1% | 1.5% | . | 0.5
Nc1ncnc(Nc2c(F)cccc2F)n1 | -2.5 | 1 | 8 | 18% | -0.6% | 0.4% | -0.2
OC[C@@H]1CN(Cc2ccc3c(c2)OCO3)C[C@H](n2cnc3c(NCc4ccc(F)cc4)ncnc32)O1 | . | -10 | . | . | 1.8% | 0.5% | 0.8
COCC1CCCCN1C(=O)c1ccc2nc(Cc3ccc(OC)c(OC)c3)oc2c1 (configuration not stated) | . | -5 | -15 | 9% | 0.0% | 0.3% | 0.2

Going on with the list:
Compound | Menin MLL FP FL | TRPML1 inh | TRPV1 potentiator | Sfp inh | PINK1 expr mod | ClpP mod | TRPML1 agonist
COc1ccccc1C1(O)C(=O)Nc2ccccc21 (configuration not stated) | 3.3 | 14 | 7 | -1% | -0.2% | . | -0.4
NC(=O)CC(NC(=O)c1cccc(Br)c1)c1ccc(N2CCC(Br)CC2)c([N+](=O)[O-])c1 (configuration not stated) | -0.2 | -4 | 5 | 0% | 0.5% | 1.4% | -0.6
C=CCn1nc([N+](=O)[O-])nc1Sc1cccc2cccnc12 | 1.1 | 8 | 4 | -27% | 2.8% | 0.8% | -0.6
O=C(COc1ccccc1)NCC(=O)N/N=C/C=C/c1ccccc1 | 1.6 | 21 | 5 | 29% | 13% | 0.5% | 0.4
N#Cc1nc(COc2ccc(F)cc2)oc1NCCCn1ccnc1 | 1.3 | -9 | 1 | 18% | -1.9% | 0.1% | 3.5
O=C(NCC(c1ccco1)S(=O)(=O)c1cccs1)c1c(F)cccc1F (configuration not stated) | . | 5 | . | . | -0.1% | -1.5% | 3.4
c1ccc(-c2c[n+]3c(n2-c2ccccc2)CCC3)cc1 | 1.0 | 6 | 14 | 5% | 0.3% | -13% | -0.5
CCOC(=O)c1cnc(SC)nc1N | -7.0 | 12 | -22 | -8% | 0.1% | -26% | 0.0
C=Cn1cc[n+](CC(=O)C(C)(C)C)c1 | 2.0 | 2 | 13 | 3% | 3.5% | -0.9% | 1.4
O=C(COC(=O)c1ccc2c(c1)OCCO2)Nc1cc(S(=O)(=O)N2CCOCC2)ccc1Cl | -0.9 | -2 | 3 | 0% | -2.1% | . | 0.7
CCOC(=O)c1cc(OC(=O)c2ccccc2Br)n(-c2ccccc2)n1 | 1.6 | 14 | 4 | -18% | 16%[38.3 µM] | -0.8% | 0.5
O=C(N1CCCCC1)N1CCN(C(c2ccccc2)c2ccccc2)CC1 | -0.2 | 26 | -11 | -4% | 7.0% | -0.5% | 13
CCOC(=O)c1cc2sccc2n1CC(=O)N1CCCC1 | 2.5 | 1 | -6 | 19% | -0.6%[38.3 µM] | -3.2% | 0.6
